# From PubChem
# FGF22 binding – binders of human FGF22 protein, primary screen, FGF22 synaptogenesis inhibitor project, biophysical, thermal shift, single point; AID 651658, 2012; Fibroblast growth factor 22 (Homo sapiens), Q9HCT0; recombinant FGF22 thermal shift, SYPRO orange fluorescence; percent of sucrose octasulfate shift, DMSO zero; 340,000 tested, 1.5% active; calls only at 9.99 µM;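 active means melting point raised past a set limit in the mean and every replicate; three in four hits are not shown here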
# Target sequence (Q9HCT0 whole entry, looked up): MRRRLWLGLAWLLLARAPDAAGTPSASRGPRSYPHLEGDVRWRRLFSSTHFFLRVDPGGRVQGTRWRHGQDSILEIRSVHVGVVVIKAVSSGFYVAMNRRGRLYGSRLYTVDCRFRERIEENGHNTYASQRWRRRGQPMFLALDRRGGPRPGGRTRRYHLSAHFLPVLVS
# AF4-AF9 inh – inhibitors of AF4 peptide binding to AF9, primary screen, biochemical, AlphaScreen, biotin-AF4 peptide, FLAG-AF9, single point. Protein AF-9 (Homo sapiens), P42568. inhibition, % at 10 µM. 350,000 tested, 0.47% active. AID 651704, 2012;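 active means every replicate reaching a set inhibition limit, whatever the replicate mean, cut at about 25% in these data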;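 further: 0% = plate neutral control median and 100% = total signal loss; the record names both 10 and 1 µM as test concentration; the first replicate is given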
# Target sequence (P42568 whole entry, looked up): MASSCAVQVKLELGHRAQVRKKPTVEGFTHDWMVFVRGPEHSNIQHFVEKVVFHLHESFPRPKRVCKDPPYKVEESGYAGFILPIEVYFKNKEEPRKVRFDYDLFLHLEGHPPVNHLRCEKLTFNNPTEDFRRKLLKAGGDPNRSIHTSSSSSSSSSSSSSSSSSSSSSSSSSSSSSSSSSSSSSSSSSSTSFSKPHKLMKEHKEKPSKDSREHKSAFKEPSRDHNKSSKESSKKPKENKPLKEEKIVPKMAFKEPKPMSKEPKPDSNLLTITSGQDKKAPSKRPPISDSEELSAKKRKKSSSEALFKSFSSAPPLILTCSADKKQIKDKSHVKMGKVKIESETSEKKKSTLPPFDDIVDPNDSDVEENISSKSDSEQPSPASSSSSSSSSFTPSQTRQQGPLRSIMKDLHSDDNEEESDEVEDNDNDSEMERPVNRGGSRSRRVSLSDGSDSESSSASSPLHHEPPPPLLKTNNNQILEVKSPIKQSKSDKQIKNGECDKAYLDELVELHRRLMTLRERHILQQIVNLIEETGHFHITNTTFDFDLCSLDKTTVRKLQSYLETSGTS
# * hit, by the source's call; i = inactive; & = joins results of further samples.
SMILES,FGF22 binding,AF4-AF9 inh
COc1ccc(-c2ccc([C@@H]3[C@@H](C#N)N(C(=O)C4CCC4)[C@@H]3CO)cc2)cc1,i,-2.1
CO[C@H]1CN(C)C(=O)c2cc(NC(=O)Nc3ccccc3)ccc2OC[C@@H](C)N(C(=O)Nc2c(C)noc2C)C[C@H]1C,i,1.4
C[C@H]1CN([C@@H](C)CO)C(=O)Cc2cc(NC(=O)CCN3CCOCC3)ccc2O[C@@H]1CN(C)C(=O)Nc1ccc(C(F)(F)F)cc1,i,-2.3
COc1ccc(NC(=O)Nc2ccc3c(c2)C(=O)N([C@@H](C)CO)C[C@H](C)[C@@H](CN(C)C(=O)NC2CCCCC2)O3)cc1,i,-2.7
C[C@H]1CN([C@@H](C)CO)C(=O)c2cc(NS(C)(=O)=O)ccc2O[C@H]1CN(C)Cc1ccc(-c2ccccc2)cc1,i,4.2
COCCN(C[C@@H]1N[C@@H](CO)[C@@H]1c1ccc(-c2cccnc2)cc1)C(C)=O,i,-2.7
CO[C@H]1O[C@H](CO)[C@@H](OC(=O)Nc2cccc(F)c2)[C@H](OC(=O)Nc2ccc3c(c2)OCO3)[C@H]1OC(=O)Nc1ccc2c(c1)OCO2,i,7.9
COC(=O)C[C@@H]1C[C@H]2c3cc(NC(=O)c4ccc5c(c4)OCO5)ccc3O[C@H]2[C@H](CO)O1,i,0.1
O=C([C@H]1[C@H](CO)[C@H]2Cn3c(ccc(-c4cccnc4)c3=O)[C@H]2N1CC1CC1)N1CCCCC1,i,-24.5
C[C@@H]1CN([C@H](C)CO)C(=O)Cc2cc(NC(=O)Nc3ccccc3)ccc2O[C@@H]1CN(C)S(C)(=O)=O,i,0.2
CNC[C@@H]1OCCCC[C@@H](C)Oc2ccc(NS(C)(=O)=O)cc2C(=O)N([C@@H](C)CO)C[C@@H]1C,i,-11.0
O=C(C[C@H]1C=C[C@H](NC(=O)C2CC2)[C@H](CO)O1)NCc1ccncc1,i,0.2
C[C@H]1CCCCO[C@@H](CN(C)Cc2ccc3c(c2)OCO3)[C@@H](C)CN([C@@H](C)CO)C(=O)c2cc(NC(=O)Nc3ccc4c(c3)OCO4)ccc2O1,i,16.4
COCC(=O)N1[C@@H](CO)[C@@H]2c3ccccc3N(C(=O)NC(C)C)C[C@@H]21,i,-1.8
O=C(N[C@H]1CC[C@@H](CCn2cc(-c3ccccc3)nn2)O[C@H]1CO)c1ccccc1F,i,0.8
C[C@H](CO)N1C[C@H](C)[C@H](CN(C)Cc2ccc(C(F)(F)F)cc2)Oc2ccc(NS(=O)(=O)c3cn(C)cn3)cc2C1=O,i,-1.7
O=C(CC(F)(F)F)N1C[C@@H]2[C@H](c3ccccc31)[C@H](CO)N2C(=O)C1CCCC1,i,-2.3
O=C1[C@H](c2ccccc2)[C@@H](c2ccncc2)N1c1ccncc1,i,-2.4
Cc1noc(C)c1S(=O)(=O)N(C)C[C@@H]1OCCCC[C@@H](C)Oc2ccc(NC(=O)Nc3ccc(F)cc3)cc2C(=O)N([C@@H](C)CO)C[C@@H]1C,i,-1.3
COc1ccccc1S(=O)(=O)N(C)C[C@@H]1OCc2ccccc2-c2c(n(C)c3ccccc23)C(=O)N([C@H](C)CO)C[C@H]1C,i,3.0
C[C@H](CO)N1C[C@H](C)[C@H](CN(C)C(=O)NC2CCCCC2)Oc2c(NC(=O)Nc3cccc4ccccc34)cccc2C1=O,i,1.0
CCCN(C)C[C@H]1Oc2cc(C#CC3CC3)ccc2S(=O)(=O)N([C@@H](C)CO)C[C@H]1C,i,3.5
CCCN1C[C@@H](C)[C@@H](OC)CN(C)C(=O)c2cc(NC(=O)Nc3ccccc3F)ccc2OC[C@@H]1C,i,-1.3
CO[C@H]1CN(C)C(=O)c2cc(NC(=O)Nc3c(C)noc3C)ccc2OC[C@H](C)N(CC2CC2)C[C@@H]1C,i,-2.0
Cc1noc(C)c1NC(=O)Nc1ccc2c(c1)C(=O)N([C@@H](C)CO)C[C@H](C)[C@H](CN(C)Cc1ccncc1)OCCCC[C@H](C)O2,i,-0.8
SMILES,FGF22 binding,AF4-AF9 inh
CC(C)CC#Cc1ccc2c(c1)O[C@@H](CN(C)C(=O)c1ccccc1F)[C@@H](C)CN([C@@H](C)CO)S2(=O)=O,i,1.8
Cc1noc(C)c1NC(=O)N(C)C[C@@H]1Oc2c(NC(=O)NC3CCCCC3)cccc2C(=O)N([C@@H](C)CO)C[C@@H]1C,i,-3.0
C[C@@H]1CCCCO[C@@H](CN(C)C(=O)C2CCCCC2)[C@H](C)CN([C@@H](C)CO)C(=O)c2cc(NC(=O)Nc3ccc4c(c3)OCO4)ccc2O1,i,0.4
CCCNC(=O)N1CCC2(CC1)CN(C(=O)NC1CCCC1)[C@H](CO)c1[nH]c3cc(OC)ccc3c12,i,1.2
C/C=C/c1ccc2c(c1)O[C@@H](CN(C)Cc1ccccc1F)[C@H](C)CN([C@H](C)CO)S2(=O)=O,i,10.7
O=C1NCCOc2ccccc21,i,-0.5
C[C@H](CO)N1C[C@H](C)[C@@H](CN(C)Cc2ccncc2)Oc2ccc(NS(=O)(=O)c3cccs3)cc2C1=O,i,0.9
CCC(=O)N1CC2(CN(Cc3ccc(Cl)cc3)C2)c2c(n(C)c3cc(OC)ccc23)[C@H]1CO,i,28.9*
Cc1ccc2c(c1)-n1c(nc3cc(C)ccc3c1=O)C(Cc1ccccc1)NC2=O (configuration not stated),i,-9.3
CCC(=O)N1C[C@@H]2[C@H](c3ccccc31)[C@@H](CO)N2C(=O)Nc1ccccc1F,i,-1.4
C[C@@H]1CN([C@@H](C)CO)C(=O)c2cc(NS(=O)(=O)c3ccccc3)ccc2O[C@@H]1CN(C)Cc1ccc(C(=O)O)cc1,i,0.8
Cc1ccccc1-c1ccc2c(c1)O[C@H](CN(C)C(=O)c1ccccn1)[C@@H](C)CN([C@H](C)CO)S2(=O)=O,i,1.9
Cc1noc(C)c1S(=O)(=O)Nc1ccc2c(c1)C(=O)N([C@H](C)CO)C[C@@H](C)[C@@H](CN(C)C(=O)NC(C)C)OCCCC[C@@H](C)O2,i,4.3
C[C@H]1CN([C@@H](C)CO)C(=O)c2cc(-c3ccccc3)cnc2O[C@@H]1CN(C)C(=O)Nc1ccccc1,i,0.0
COc1cccc(S(=O)(=O)Nc2ccc3c(c2)[C@@H]2C[C@@H](CC(=O)N[C@@H](C)c4ccccc4)O[C@H](CO)[C@@H]2O3)c1,i,-2.4
CO[C@H]1CN(C)C(=O)c2cc(NS(=O)(=O)c3ccc(C)cc3)ccc2OC[C@@H](C)N(C(=O)NC(C)C)C[C@H]1C,i,-0.4
C/C=C/c1cnc2c(c1)C(=O)N([C@@H](C)CO)C[C@H](C)[C@H](CN(C)S(=O)(=O)c1ccc(C)cc1)O2,i,-6.9
C[C@@H]1CN([C@@H](C)CO)C(=O)CCCn2cc(nn2)CO[C@H]1CN(C)C(=O)Cc1ccccc1,i,-1.2&-2.2
CO[C@H]1CN(C)C(=O)c2cc(NC(=O)c3ccc(Oc4ccccc4)cc3)ccc2OC[C@@H](C)NC[C@H]1C,i,9.0
C[C@H](NC(=O)C[C@@H]1C[C@@H]2c3cc(NC(=O)Cc4ccncc4)ccc3O[C@@H]2[C@H](CO)O1)c1ccccc1,i,-0.8
Cc1ccc(S(=O)(=O)N(C)C[C@@H]2Oc3ccc(NS(=O)(=O)c4ccccc4)cc3C(=O)N([C@H](C)CO)C[C@@H]2C)cc1,i,-2.5
CC(=O)N(C)C[C@H]1Oc2cc(C#CC3CCCCC3)ccc2S(=O)(=O)N([C@@H](C)CO)C[C@H]1C,i,1.2
COC(=O)C[C@H]1C=C[C@H](NC(=O)Nc2ccc(C(F)(F)F)cc2)[C@@H](CO)O1,i,1.3
C[C@@H](NC(=O)C[C@H]1CC[C@@H]2[C@H](COC[C@H](O)CN2Cc2cc(F)ccc2F)O1)c1ccccc1,i,-3.4
C[C@@H]1CN([C@H](C)CO)C(=O)c2cc(NS(C)(=O)=O)ccc2O[C@@H]1CN(C)C(=O)Nc1cccc2ccccc12,i,-2.0

# A run of entries from the list above, as a working copy:
SMILES,FGF22 binding,AF4-AF9 inh
COCCN(C[C@@H]1N[C@@H](CO)[C@@H]1c1ccc(-c2cccnc2)cc1)C(C)=O,i,-2.7
CO[C@H]1O[C@H](CO)[C@@H](OC(=O)Nc2cccc(F)c2)[C@H](OC(=O)Nc2ccc3c(c2)OCO3)[C@H]1OC(=O)Nc1ccc2c(c1)OCO2,i,7.9
COC(=O)C[C@@H]1C[C@H]2c3cc(NC(=O)c4ccc5c(c4)OCO5)ccc3O[C@H]2[C@H](CO)O1,i,0.1
O=C([C@H]1[C@H](CO)[C@H]2Cn3c(ccc(-c4cccnc4)c3=O)[C@H]2N1CC1CC1)N1CCCCC1,i,-24.5
C[C@@H]1CN([C@H](C)CO)C(=O)Cc2cc(NC(=O)Nc3ccccc3)ccc2O[C@@H]1CN(C)S(C)(=O)=O,i,0.2
CNC[C@@H]1OCCCC[C@@H](C)Oc2ccc(NS(C)(=O)=O)cc2C(=O)N([C@@H](C)CO)C[C@@H]1C,i,-11.0
O=C(C[C@H]1C=C[C@H](NC(=O)C2CC2)[C@H](CO)O1)NCc1ccncc1,i,0.2
C[C@H]1CCCCO[C@@H](CN(C)Cc2ccc3c(c2)OCO3)[C@@H](C)CN([C@@H](C)CO)C(=O)c2cc(NC(=O)Nc3ccc4c(c3)OCO4)ccc2O1,i,16.4
COCC(=O)N1[C@@H](CO)[C@@H]2c3ccccc3N(C(=O)NC(C)C)C[C@@H]21,i,-1.8
O=C(N[C@H]1CC[C@@H](CCn2cc(-c3ccccc3)nn2)O[C@H]1CO)c1ccccc1F,i,0.8

# (more compounds)
SMILES,FGF22 binding,AF4-AF9 inh
C[C@H](CO)N1C[C@H](C)[C@H](CN(C)CC2CC2)Oc2c(NS(=O)(=O)c3cccs3)cccc2C1=O,i,-0.9
CO[C@@H]1CN(C)C(=O)c2ccc(NC(=O)NC(C)C)cc2OC[C@@H](C)N(CCC(F)(F)F)C[C@@H]1C,i,-2.5
Cc1noc(C)c1S(=O)(=O)Nc1ccc2c(c1)CC(=O)N([C@@H](C)CO)C[C@@H](C)[C@H](CN(C)S(=O)(=O)c1ccc(Cl)cc1)O2,i,-1.3
COc1ccc(S(=O)(=O)N(C)C[C@@H]2Oc3ccc(NS(=O)(=O)c4ccccc4)cc3CC(=O)N([C@H](C)CO)C[C@H]2C)cc1,i,0.0
COCC#Cc1cnc2c(c1)C(=O)N([C@@H](C)CO)C[C@@H](C)[C@@H](CN(C)C(=O)C1CC1)O2,i,1.1
CO[C@@H]1CC[C@H]2CCOc3ccc(C#N)cc3C(=O)N(C)C[C@@H](C)C(=O)N(C)C[C@@H]1O2,i,-0.8
Cc1noc(C)c1NC(=O)N(C)C[C@H]1Oc2ccc(NC(=O)Nc3ccc4c(c3)OCO4)cc2CC(=O)N([C@@H](C)CO)C[C@H]1C,i,-7.0
COc1cccc(NC(=O)N[C@H]2C=C[C@@H](CC(=O)NCc3ccncn3)O[C@@H]2CO)c1,i,-3.5
CCC(=O)NC[C@@H]1[C@@H](c2ccccc2)[C@H](CO)N1C(=O)C1CC1,i,-4.9
COCC(=O)N(C)C[C@@H]1Oc2cc(C#C[C@H](C)O)ccc2S(=O)(=O)N([C@@H](C)CO)C[C@@H]1C,i,-1.9
O=C(C[C@H]1C[C@@H]2c3cc(NC(=O)NC4CCCCC4)ccc3O[C@@H]2[C@H](CO)O1)NCc1ccncc1,i,-18.3
CN(C)C(=O)[C@H]1[C@H](CO)[C@H]2Cn3c(ccc(-c4ccncc4)c3=O)[C@@H]1N2CC1CCCC1,i,-0.3
C[C@H](CO)N1C[C@H](C)[C@H](CN(C)C(=O)CN(C)C)Oc2ncc(C#C[C@@H](C)O)cc2C1=O,i,-2.2
C[C@H]1CN([C@@H](C)CO)C(=O)c2cccc(NC(=O)c3cnccn3)c2O[C@H]1CN(C)Cc1ccccc1,i,-3.2
COc1ccc(NC(=O)N(C)C[C@H]2Oc3ccc(N(C)C)cc3CC(=O)N([C@@H](C)CO)C[C@@H]2C)cc1,i,-1.3
COc1cccc(NC(=O)N[C@H]2C=C[C@@H](CC(=O)N3CCOCC3)O[C@H]2CO)c1,i,-0.4
CCNC(=O)C[C@@H]1CC[C@@H]2[C@H](COC[C@@H](O)CN2Cc2ccccc2F)O1,i,0.4
CCC(=O)N1[C@H](CO)[C@@H](c2ccccc2)C12CN(C(=O)c1ccncc1)C2,i,-3.9
C[C@@H]1CN([C@H](C)CO)C(=O)c2cc(NS(=O)(=O)c3cn(C)cn3)ccc2O[C@@H](C)CCCCO[C@@H]1CN(C)S(=O)(=O)c1cn(C)cn1,i,-13.0
COc1ccc(S(=O)(=O)Nc2ccc3c(c2)C(=O)N([C@@H](C)CO)C[C@@H](C)[C@H](CN(C)C(=O)NC(C)C)OCCCC[C@@H](C)O3)cc1,i,-1.0
CCCN1C[C@@H](C)[C@@H](OC)CN(C)C(=O)c2cc(NC(=O)C3CCOCC3)ccc2OC[C@@H]1C,i,-1.0
Cc1noc(C)c1S(=O)(=O)N(C)C[C@@H]1Oc2ccc(NC(=O)Cc3cn(C)c4ccccc34)cc2CC(=O)N([C@H](C)CO)C[C@@H]1C,i,4.8
C[C@@H]1CN([C@@H](C)CO)C(=O)c2cccc(NC(=O)C3CCOCC3)c2O[C@@H]1CN(C)CC1CC1,i,-2.3
CO[C@@H]1CN(C)C(=O)c2cc(NC(=O)c3ccccc3)ccc2OC[C@H](C)N(C)C[C@@H]1C,i,0.1
C[C@H](CO)N1C[C@H](C)[C@H](CN(C)Cc2ccc(Oc3ccccc3)cc2)Oc2ccc(NS(C)(=O)=O)cc2C1=O,i,3.9
O=C(NCc1cc(C(F)(F)F)ccc1Cl)c1cccc2c1C(=O)c1ccc(Cl)cc1S2(=O)=O,i,0.5
C[C@@H]1CN([C@H](C)CO)C(=O)CCCn2cc(nn2)CO[C@H]1CN(C)Cc1ccc2cccnc2c1,i,-0.5

# An excerpt. The share of hits here may be higher or lower than overall.
